Calb biofilm kill – mixtures killing C. albicans biofilm | C. albicans biofilm persisters + clotrimazole, fluorescence viability; primary screen in compound mixtures of four per well | inhibition, % at 7.6 µM | 120,000 compounds, 0.02% hits;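 active = inhibition above 30.3% in the primary screen of four-compound pools, then above 30% when the compound was retested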;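 also: compounds exposed to preformed 24 h biofilms for 48 h; the number belongs to the whole pool; some results filed as inactive read as strong as hits; inactives centre near 12; 0% = biofilm with clotrimazole alone and 100% = kill control; retested singly at about 60 µM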
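Assay system: C. albicans biofilms / Medium: RPMI/MOPS medium, pH 7.0 / Schedule: biofilm formation 24 h, compound exposure 48 h, 37 °C / Measured by: Alamar Blue fluorescence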
Starred values were filed as active, the others as inactive.

The first 3 compounds as a preview:
SMILES | Calb biofilm kill
CN(Cc1ccccc1)S(=O)(=O)c1cccc(C(=O)O)c1 | 11
Cc1nnc(SCC(=O)N2CCN(c3ccccc3)CC2)n(N)c1=O | 17
CNC(=S)N/N=C(\C)c1ccc(Cl)s1 | 17

The listing (from the top)
SMILES | Calb biofilm kill
CN(Cc1ccccc1)S(=O)(=O)c1cccc(C(=O)O)c1 | 11
Cc1nnc(SCC(=O)N2CCN(c3ccccc3)CC2)n(N)c1=O | 17
CNC(=S)N/N=C(\C)c1ccc(Cl)s1 | 17
O=C(COC(=O)c1cc2c(s1)CCCC2)Nc1ccc(Cl)cn1 | 12
COc1ccccc1/C=C1\Oc2cc(OC(=O)N3CCOCC3)ccc2C1=O | 9
CCOC(=O)/C(C#N)=C/c1ccc(SC)cc1 | 22
Cc1ccccc1OCC(=O)NNC(=O)CCc1ccccc1 | 31
CCOC(=O)C1CCN(Cc2cc(C(C)C)c(O)c(C(C)C)c2)CC1 | 14
O=C(CNc1ccc2ccccc2c1)N/N=C/c1ccc(OC(=O)/C=C/c2ccco2)cc1 | 21
COc1ccc(NC(=S)Nc2ccccn2)cc1 | 7
O=C1OCC/C1=C\OCCCO/C=C1\CCOC1=O | 19
Cc1cc(C)n(-c2ncccc2[N+](=O)[O-])n1 | -6
Nc1ncnc(NC2CCS(=O)(=O)C2)c1[N+](=O)[O-] (centres undefined) | 17
COC(=O)c1nnn(-c2ccc(F)c(Cl)c2)c1C(=O)OC | 32
CC(NC(=O)CC1Sc2ccccc2NC1=O)c1ccccc1 (centres undefined) | 13
CC(Sc1ncc(C(F)(F)F)cc1Cl)C(=O)NCC1CCCO1 (centres undefined) | 6
Cc1cc(C(=O)COc2ccc3ccc(=O)oc3c2)c(C)n1C | 11
CC(/C=C/c1ccccc1)=N/NC(=O)C(O)c1ccccc1 (centres undefined) | 13
CSc1nc(O)c(C(c2cccc([N+](=O)[O-])c2)c2c(O)nc(SC)[nH]c2=O)c(=O)[nH]1 | 7
CC(C)(C)NC(=O)C(=O)NNC(=O)c1cccc(Br)c1 | 8
Cc1cc(C)c(NC(=O)c2sc3nc(C)[nH]c(=O)c3c2C)c(C)c1 | 13
COc1ccc(C(=O)CSc2[nH]c(=O)cc(C(F)(F)F)c2C#N)cc1 | 22
CCOc1ccc(-c2cn3ccccc3n2)cc1 | -1
O=c1[nH]nc(-c2ccccc2)c2ccccc12 | 4
Cn1cnc(NCc2ccccc2)c1[N+](=O)[O-] | 13
O=C(CC(CC(=O)c1ccc(Br)cc1)c1cccnc1)c1ccc(Br)cc1 | 20
COc1ccc(Cl)cc1/C=C(\C#N)C(N)=O | 9
CCOc1ncccc1C(=O)Nc1ncc(C)s1 | 24
O=C(CSC1=NCCN1)NC(c1ccccc1)c1ccccc1 | 17
Cc1ccc(NC(=O)CN(C)C(=O)c2n[nH]c(=O)c3ccccc23)cc1 | 12
Cc1cccc(C(=O)NC(=S)NCc2cccnc2)c1 | 6
CC(C)CC(NC(N)=O)C(=O)NCCc1ccc(Cl)cc1 (centres undefined) | 12
COCCNc1nnnc2c1sc1nc(N3CCOCC3)c3c(c12)CCCC3 | 12
Cc1ccc2nc(-c3ccco3)c(Nc3ccccc3)n2c1 | -6
OC(COCc1ccc2c(c1)OCO2)CN1CCCCC1 (centres undefined) | 19
NS(=O)(=O)c1ccc(CCNC(=O)CSc2ccc3ccccc3c2)cc1 | 13
CCC(c1nnc(SCC(=O)N2CCOCC2)n1C1CCCCC1)N(C)C (centres undefined) | 13
CCOC(=O)N1CCN(C(=O)CCl)CC1 | 14
O=C(CSc1cccc[n+]1[O-])N1CCCCCC1 | -2
CN(c1ccc(OCC(=O)NCc2cccnc2)cc1)S(=O)(=O)c1ccc(Cl)cc1 | 22
Cc1cnc(C(=O)Oc2c(C)ccc(C)c2C)cn1 | 7
Cc1ccc(SCC(=O)NC(=O)NCCC(C)C)c(C)c1 | 8
Cc1nc2c(C)cccc2c2c1CCS2 | 4
Cc1ccc(SCc2cc(=O)[nH]c(Nc3nc(C)c4ccccc4n3)n2)cc1 | 8
Cc1ccc(NC(=O)COC(=O)CN2C(=O)c3ccccc3C2=O)cc1S(=O)(=O)N(C)C | 5
Cc1ccc(Nc2nc(Cl)c(C=O)s2)cc1 | 31
CC1(C)C(=O)CC[C@]2(C)C3C(=O)C=C4[C@H]5C[C@@](C)(C(=O)O)CC[C@]5(C)CC[C@]4(C)[C@]3(C)CC[C@@H]12 (some centres undefined) | 20
N/C(=N\OC(=O)CCCOc1ccccc1)c1cccc(Br)c1 | 10
CCc1ccc(NC(=O)Cc2c(C(=O)O)n(C)c3ccccc23)cc1 | 25
Cc1ccc2[nH]c(=O)c(CN(Cc3cccnc3)Cc3nnnn3CC3CCCO3)cc2c1 (centres undefined) | 19
O=C(N/N=C/c1ccccc1)c1n[nH]c2c1CCCC2 | 11
N#Cc1ccccc1NC(=O)c1ccc2c(Cl)c3c(nc2c1)CCCC3 | 12
CC(C)c1ccccc1NC(=O)COC(=O)c1c2c(nc3ccccc13)CCN(Cc1ccccc1)C2 | 10
CC(C)(C)c1ccc(/C=C/C(=O)NC2CCS(=O)(=O)C2)cc1 (centres undefined) | 22
O=C(Nc1ccccc1-c1nc2ccccc2s1)C1=COCCO1 | 11
O=C(/C(=C(\[O-])c1ccccc1)[n+]1ccc2ccccc2c1)c1ccc(Cl)cc1 | 9
C[C@@H]1C(=O)O[C@@H]2[C@H](O)C34[C@H]5C[C@@H](C(C)(C)C)C36[C@H](OC(=O)[C@@H]6O)OC4(C(=O)O5)[C@@]12O (some centres undefined) | 22
CCc1ccc(C(=O)COC(=O)c2n[nH]c3ccccc23)cc1 | 15
Cc1nnc(NC(=O)CSc2ncc(-c3ccccc3)[nH]2)s1 | 13
C=CCN1C=C2C(=O)C(C)(OC(=O)c3ccc(OC)cc3)C(=O)C(c3ccco3)=C2C=C1CCCC (centres undefined) | 16
Going on with the list.
SMILES | Calb biofilm kill
CCC1C(=O)N(C)CCc2ccccc21 (centres undefined) | 8
Cc1ccc(C(=O)Nc2cc([N+](=O)[O-])ccc2C)cc1 | 22
COc1cccc2c1OCC(CN1CCN(Cc3ccccc3)C(CCO)C1)=C2 (centres undefined) | 18
Cc1ccc(CCNc2ccc3ccccc3c2)cn1 | 20
Cc1nc2nc(SCC(=O)O)nn2c(C)c1Cc1ccccc1Cl | 9
O=C(CNC(=O)c1ccccc1)OC(C(=O)c1ccccc1)c1ccccc1 (centres undefined) | 2
Cc1noc(C)c1S(=O)(=O)Nc1ccccc1N1CCOCC1 | 29
COc1ccc(C(=O)NNC(=O)c2ccc(S(=O)(=O)N3CCOCC3)cc2)cc1 | -4
O=[N+]([O-])c1cc(CSC2=NCCN2)ccc1O | 16
O=S(=O)(c1ccc(Cl)cc1)n1c(Cc2ccccc2)nc2ccccc21 | 11
Cc1cccc(NC(=S)NCCC(C)C)c1 | 14
CC(C)c1ccc(C(O)P(=O)(OC2CCCCC2)OC2CCCCC2)cc1 (centres undefined) | 27
O=C(COc1ccccc1F)NCc1nc2ccccc2[nH]1 | 17
O=C1C(NS(=O)(=O)c2ccccc2)=C(N2CCN(c3ccc(F)cc3)CC2)C(=O)c2ccccc21 | 28
NC(=O)CC[C@@H]1NC(=O)[C@H](CO)NC(=O)c2cc([N+](=O)[O-])cc(I)c2NCC[C@@H](C(N)=O)NC1=O | 7
CCOc1ccc(/C=C2\SC(N3CCc4ccccc4C3)=NC2=O)cc1 | 10
Cc1ccc(NC(=O)C(C)N2C(=O)c3ccccc3C2=O)nc1 (centres undefined) | 13
CCN(CC)C(=O)N1CCN(S(=O)(=O)c2ccccc2)CC1 | 5
C/C(=N\Nc1ccccn1)c1ccc(S(=O)(=O)NCc2ccco2)cc1 | 11
O=CNNC(=O)c1cccc([N+](=O)[O-])c1 | 18
Cc1csc(NC(=O)CSc2nc3[nH]ncc3c(=O)[nH]2)n1 | 19
CCC(C)(C)NC(=O)C(c1ccccn1)N(C(=O)c1csnn1)c1ccccc1 (centres undefined) | 7
O=C(NNC(=O)c1cc2cc(OC(F)(F)F)ccc2[nH]1)c1ccc(Cl)cc1 | 23
Nc1ccc(NC(=O)NC2CCCCC2)cc1 | 9
O=C(C[n+]1ccc(Cc2ccccc2)cc1)Nc1ccc([N+](=O)[O-])cc1Cl | 21
CCOC(=O)c1c(C)[nH]c(C)c1C(=O)CSc1nc2ccccc2n1CC | -2
O=c1ccc2[n+]([O-])c3ccc(O)cc3oc-2c1 | 20
COc1ccc(/C=C/C(=O)NCCNC(=O)c2ccccc2)cc1OC | -2
O=C(NCCc1ccccc1)C1CCN(C2CCN(Cc3ccc(CO)o3)CC2)CC1 | 13
Cc1c(N/C(=N/S(=O)(=O)c2cc([N+](=O)[O-])ccc2Cl)c2ccccc2)c(=O)n(-c2ccccc2)n1C | 18
COc1ccc(/C=C/C(=O)Nc2cccc(S(=O)(=O)NC3=NCCCCC3)c2)cc1 | 33
COc1ccc(/C=N/NC(=O)c2cccnc2)cc1CN1CCOCC1 | 7
O=C(C1=C[C@H](c2csc3ccccc23)C[C@H](OCc2ccc(CO)cc2)O1)N1CCN(Cc2ccccc2)CC1 | 16
Cn1/c(=N/N=C/c2ccc(N3CCOCC3)cc2)sc2ccccc21 | 9
CC(=O)Nc1ccc(CN2CCCC(C(=O)c3ccc(C(F)(F)F)cc3)C2)cc1 (centres undefined) | 0
COc1ccc(C(C)(C)C)cc1NC(=O)COC(=O)c1cc(SC)ccc1Cl | 19

Reprinted at random: two compounds from above
SMILES | Calb biofilm kill
Cc1cc(C)n(-c2ncccc2[N+](=O)[O-])n1 | -6
Cc1ccc(Nc2nc(Cl)c(C=O)s2)cc1 | 31

Continued.
SMILES | Calb biofilm kill
CCC(C)NC(=O)COC(=O)c1oc2ccccc2c1CSc1ccc(Cl)cc1 (centres undefined) | 0
O=C(Nc1nccs1)c1cc(-c2ccco2)nc2ccccc12 | 9
O=S(=O)(/C=C/c1ccccc1)N1CCN(c2nc(-c3ccccc3)nc3ccccc23)CC1 | 14
Cc1ccc(CN2C(=O)CCC2C(=O)N2CCN(c3ccccc3)CC2)cc1 (centres undefined) | 15
C/C(CCc1ccc2c(c1)OCO2)=N\NC(=O)c1ccccc1Br | 17
Nc1ccc(C(=O)C(=O)c2ccc(N)cc2)cc1 | 17
Cc1ccc(S(=O)(=O)C(C#N)=C2N(C)c3ccccc3N2C)cc1 | -9
Cc1ccc(NC2Sc3ccccc3NC2=O)cc1 (centres undefined) | 7
O=C(CN(Cc1ccccc1)C1=NCCS1)c1ccccc1 | 14
CCOc1ccc(NC(=O)NC2CC(=O)N(c3ccc(OC)cc3)C2)cc1 (centres undefined) | 9
CCOC(=O)c1c(-c2ccc(C)cc2)csc1NC(=O)CCN1CCOCC1 | 6
Cc1ccc(OCC(=O)N2CCc3ccccc32)c([N+](=O)[O-])n1 | 10
Cc1cc(C)n(-c2ccc(C(=O)O)cc2)n1 | 13
Nc1nc(NCCCN2CCOCC2)nc(Nc2ccccc2F)c1[N+](=O)[O-] | 8
Cc1ccc(C(=S)N2CCN(Cc3ccccc3)CC2)cc1 | 12
Clc1ccc(CSc2ccc(-c3cccnc3)nn2)cc1 | 9
O=C(NCc1ccco1)c1ccc(NS(=O)(=O)c2cccc([N+](=O)[O-])c2)cc1 | -2
COc1cc(OC)c(NS(=O)(=O)c2cccc(C(=O)OCC(=O)NCC3CCCO3)c2)cc1Cl (centres undefined) | 3
Cc1c(C(=O)NN)sc(=S)n1C | 9
O=[N+]([O-])c1cccc(/C=N/n2c(C3CCCCC3)n[nH]c2=S)c1 | 10
CCc1nnc(NC(=O)C(NC(=O)c2ccccc2Cl)C(C)C)s1 (centres undefined) | 17
CN1OC(Cn2cc(C#N)c(=O)n(C)c2=O)CC1c1ccccc1 (centres undefined) | 14
N#CCCNc1c(Cl)cc(Cl)cc1C(=O)O | 18
NS(=O)(=O)c1ccc(Oc2ccc(S(N)(=O)=O)cc2)cc1 | 20

5 entries already listed, ordered by length of the SMILES, descending:
SMILES | Calb biofilm kill
O=S(=O)(c1ccc(Cl)cc1)n1c(Cc2ccccc2)nc2ccccc21 | 11
CCOC(=O)C1CCN(Cc2cc(C(C)C)c(O)c(C(C)C)c2)CC1 | 14
CCN(CC)C(=O)N1CCN(S(=O)(=O)c2ccccc2)CC1 | 5
CC(C)(C)NC(=O)C(=O)NNC(=O)c1cccc(Br)c1 | 8
CC(C)CC(NC(N)=O)C(=O)NCCc1ccc(Cl)cc1 (centres undefined) | 12

Further entries
SMILES | Calb biofilm kill
CC(C)(C)OC(=O)Nc1ncnc2c1ncn2C1OC(CO)C2OC(C)(C)OC21 (centres undefined) | 17
O=C(N/N=C/c1coc2ccccc2c1=O)c1cc2ccccc2o1 | 7
O=S(=O)(c1ccc2ccccc2c1)N1CCC(c2nc(-c3ccncc3)no2)CC1 | 7
CC(C)CNC(=S)N1CCC(NC(=O)C23CC4CC(CC(C4)C2)C3)CC1 | 12

Bioassay records (PubChem BioAssay)

These rows are one share of the data; rates above refer to the full screens.
